Calb biofilm kill: clotrimazole potentiators killing C. albicans biofilm, primary screen, 4-compound mixtures; C. albicans biofilm persisters + clotrimazole, fluorescence viability; primary screen in compound mixtures of four per well; inhibition, % at 7.6 µM; actives 0.02% (n = 120,000); AID 1242, 2008;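 active = inhibition above 30.3% in the primary screen of four-compound pools, then above 30% when the compound was retested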;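 also: compounds exposed to preformed 24 h biofilms for 48 h; the number belongs to the whole pool; some results filed as inactive read as strong as hits; inactives centre near 12; 0% = biofilm with clotrimazole alone and 100% = kill control; retested singly at about 60 µM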
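System: C. albicans CAF4-2 wild-type biofilms; Medium: RPMI/MOPS medium, pH 7.0; Reagent: Clotrimazole, 50 µg/mL; Times: biofilm formation 24 h, compound exposure 48 h, 37 °C; Detection: 2-h Alamar Blue fluorescence, 535/590 nm excitation/emission; Evaluation: percent inhibition of biofilm viability.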
Starred values were filed as active, the others as inactive. Some of the compounds tested; count on the stated rates, not on these rows.

structure,Calb biofilm kill
CCOc1ccc(CN(C)CC(=O)NCc2ccccc2)cc1,1
COC(=O)CCC/C=C1\SC[C@@H](NC(=O)c2ccccc2)C1NC(C)=O (stereo not given in full),17
N/C(=N\OC(=O)/C=C/c1ccccc1)c1ccccn1,12
O=C(O)CN1CCCCCC1=O,20
CCCCNc1nc2c(-c3ccccc3)nnn2c2ccccc12,19
Brc1ccc(Cn2c(-c3ccc(Br)o3)nc3ccccc32)o1,16
O=C(c1cccc([N+](=O)[O-])c1)c1ccc2c(c1)C(=O)N(c1c[nH]c(=O)[nH]c1=O)C2=O,27
Cc1cc(C)c(NC(=O)COC(=O)/C=C/c2cccc(C(F)(F)F)c2)c(C)c1,4
O=C(O)c1cc(-c2cccc([N+](=O)[O-])c2)n[nH]1,15
COc1ccc(CCN(Cc2cccs2)S(=O)(=O)c2ccc(C(=O)O)cc2)cc1OC,4
Cc1ccc(OCCn2c(=O)sc3ccccc32)cc1,6
O=C(COc1cccc2ccccc12)N/N=C/C=C/c1ccccc1,14
COc1ccc(NC(=S)SC)cc1OC,-5
CC1(C)CC2CC(C)(CN2S(=O)(=O)c2ccc(C(=O)Nc3cccc(S(=O)(=O)N4CCOCC4)c3)cc2)C1 (stereo not given),6
O=C1c2cc(N3CCCC3)c([N+](=O)[O-])cc2C(=O)N1c1ccccc1,9
CC(=O)Nc1ccc(C(=S)NCCCO)cc1,10
CCOC(=O)C1(CC2CCCCO2)CCN(C(=O)Nc2ccccc2SC)CC1 (stereo not given),2
CCOC(=O)c1c(-c2ccccc2)oc2ccc(OCC(=O)O)cc12,-1
Cc1c(NC(=O)C2CCN(S(=O)(=O)c3cccs3)CC2)c(=O)n(-c2ccccc2)n1C,20
BrC(=C\c1ccccc1)/C=N/Nc1nc(N2CCOCC2)nc(N2CCOCC2)n1,17
Cn1nccc1CNC(=O)c1ccnn1C,18
COc1ccc(N2CCN(C(=O)c3cccnc3SCc3cccc(Br)c3)CC2)cc1,18
Cc1ccc(NC(=O)CSc2nc(N)c3cc4c(nc3n2)CCCC4)cc1,17
CS(=O)(=O)CCSc1ncccc1C(=O)NCc1cccs1,10
Cc1ccccc1N1Cc2ccccc2C1,11
CCOC(=O)c1csc(NC(=O)CSc2nnnn2-c2ccc3c(c2)OCCO3)n1,7
O=C(Nc1ccccc1N1CCOCC1)C1CCN(S(=O)(=O)c2cccc(C(F)(F)F)c2)CC1,16
CCCn1nc(C(=O)OCC(=O)c2ccccc2)c2ccccc2c1=O,7
COCCNC(=S)N1CCN(c2cccc(C)c2C)CC1,5
Cc1cccc(NC(=O)C(=O)NCCCN2CCOCC2)c1,-3
Cc1cc(=O)oc2cc(O)c(N=Nc3ccccc3)cc12,17
O=C(Cn1nnc(-c2ccccc2F)n1)NCc1ccco1,10
O=C(COC(=O)/C=C/c1cccc(F)c1)Nc1ccccc1,9
O=C(c1ccc(Cl)c(Cl)c1)N1CCC(O)(CN2CCOCC2)CC1,8
Cc1cccc(-c2n[nH]c(=S)n2/N=C/c2ccco2)c1,16
Cc1ccccc1CC1(CO)CCCN(C(=O)c2ccc(F)cc2)C1 (stereo not given),7
CCCOc1ccc(C(=O)CCC(=O)OCC(=O)Nc2ccc(Oc3ccccc3)cc2)cc1,21
O=C(NCc1ccccc1)C(c1ccccc1)N(C(=O)c1csnn1)C1CC1 (stereo not given),4
CN1CCN(/N=C/c2ccc(N(C)c3ccccc3)cc2)CC1,15
CN1CCN(C(CNS(=O)(=O)c2cccs2)c2cccnc2)CC1 (stereo not given),16
O=[N+]([O-])c1cccc(-c2noc(COc3ccccc3)n2)c1,3
O=C(N/N=C/c1cccc([N+](=O)[O-])c1)C1COc2ccccc2O1 (stereo not given),6
Cc1cc(C)c(N2C(=O)C3C4CC(=O)C(c5ccccc54)C3C2=O)c(C)c1 (stereo not given),7
C=CCNC(=S)NNC(=O)c1cccnc1,33
O=C(Nc1c(F)cc(F)cc1Br)c1cc(S(=O)(=O)N2CCN(c3ccccn3)CC2)ccc1F,18
Cc1ccccc1N1CC(O)(c2cccs2)[N+]2=C1CCCC2 (stereo not given),22
CCCCNC(=O)COC(=O)CNC(=O)c1cc(Cl)cc([N+](=O)[O-])c1,7
O=C(OCc1nc2ccccc2[n+]([O-])c1C(=O)c1ccccc1)c1cccnc1,16
CCS(=O)(=O)Nc1ccc2c(c1)OCO2,3
N/C(=N\OC(=O)c1ccccc1)c1ccccn1,27
O=C(NCc1nnc(SCC(=O)N2CCc3ccccc32)o1)c1cccs1,17
Cc1ccc(NCc2ccc(Cl)nc2)c(NCc2ccc(Cl)nc2)c1,12
Cc1onc(C(=O)Nc2sc3c(c2C#N)CCCC3)c1[N+](=O)[O-],9
Cc1cccc(C(=O)N/N=C/c2cc(Br)c(Br)o2)c1,14
COc1ccc2c(CN3CCN(S(=O)(=O)c4cccs4)CC3)cc(=O)oc2c1,9
COC(=O)c1c(C)nc2nonc2c1N,10

(more compounds)
structure,Calb biofilm kill
O=C(CSc1nc2ccccc2c(=O)n1-c1ccccc1)c1c[nH]c2ccccc12,8
CC1(C)CC(NCCC(c2ccccc2)c2ccco2)CCO1 (stereo not given),19
Cc1nc(SCCCSc2n[nH]c(C)n2)n[nH]1,8
O=C1CN=C(Nc2ccccc2Cl)N1Cc1ccc2c(c1)OCO2,18
CCOC(=O)c1cnc2ccc(C)cn2c1=O,1
COc1ccccc1Nc1nc(-c2ccccc2)nc2ccccc12,1
NC1=NC(=O)/C(=C/c2c(OS(=O)(=O)c3ccc(Cl)cc3)ccc3ccccc23)S1,17
CC(=O)c1cccc(NC(=O)C(C)N2CCc3ccccc3C2)c1 (stereo not given),8
CCn1nnnc1NCc1c(OC)ccc2ccccc12,20
COc1cccc(-n2c(SCC(=O)N3CCc4ccccc43)nnc2-c2c[nH]c3ccccc23)c1,3
CCC(C)(C)NC(=O)C(c1ccc(O)cc1)N(C(=O)Cn1nnc2ccccc21)c1ccc(NC(C)=O)cc1 (stereo not given),19
COc1ccc(-c2nn(-c3ccccc3C)cc2CNC(C)c2cn(C)nc2C)cc1F (stereo not given),27
Cc1cc(C)n(-c2cc(C(=O)O)cc(C(=O)O)c2)n1,4
CC1Cc2ccccc2N1C(=O)CSc1ncc(-c2ccc(F)cc2)n1C (stereo not given),6
CC(NC(=O)CCN1N=C(c2ccccc2)CCC1=O)c1ccc2c(c1)OCCO2 (stereo not given),19
CCOC(=O)c1cn[nH]c1NC(=S)Nc1ccc(OC)cc1,5
CCC(C)Cn1c(C(C)C)nc2ccccc21 (stereo not given),17
O=C(CN1CC(=O)Oc2ccccc21)OCC(=O)c1ccc(F)cc1,2
Cn1c(SCC(=O)Nc2cccnc2)nnc1-c1ccccc1F,17
O=C(NCc1ccncc1)Nc1cccc([N+](=O)[O-])c1,13
COc1ccc(CNC(=O)CCCc2ccccc2)cc1,12
Cc1cccc(C)c1NC(=S)N1CCCN(Cc2ccc(F)cc2)C1,15
COc1cccc(N/N=C(\C#N)S(=O)(=O)C(C)(C)C)c1,18
CC(=O)N(Cc1ccc(F)cc1)Cc1nc2ccccc2c(=O)[nH]1,19
CSCCC(NC(=O)/C(=C\c1ccc(Cl)cc1)NC(=O)c1ccccc1)C(=O)O (stereo not given),8
CCOC(=O)c1c(C)n(C)c2cc(-c3cccc(C(F)(F)F)c3)c(O)cc12,17
CCOc1ccc(S(=O)(=O)NCCCN2CCCC2=O)cc1,0
CS(=O)(=O)N1N=C(c2cccs2)CC1c1ccccc1F (stereo not given),12
COc1cccc(/C=C(/C(=O)OCC(=O)NC2CCCCCCC2)c2ccccc2)c1,15
Cc1ccccc1NC(=O)CCC(=O)N/N=C/c1c[nH]c2ccccc12,19
CC(Oc1ccc(Cl)cc1Cl)C(=O)NN=C1CCN(C)CC1 (stereo not given),3
Cc1ccc(C(=O)N/C(=C/c2ccco2)C(=O)NC2CCS(=O)(=O)C2)cc1 (stereo not given),8
C=CCOc1ccc(-c2nc3c(c(=O)[nH]c(=O)n3CCCC)n2C)cc1OC,12
O=C(c1ccc(C(=O)N2CCCCCC2)cc1)N1CCCCCC1,19
C=CCN1C(=O)/C(=C/c2ccccc2)S/C1=N/c1nccs1,14
O=c1oc2ccc(Cl)cc2cc1-c1ccccc1,11
NNC(=O)CCc1c[nH]c2ccccc12,20
N=C(c1cccc([N+](=O)[O-])c1)N1CCCCC1,12
COC(=O)C1C(O)=C(C=Nc2cccc3ccccc23)C(=O)CC1(C)C (stereo not given),15
Cc1nn(Cc2ccccc2)c(C)c1NC(=O)c1cccs1,18
CCC(=O)Nc1ccc(C(=O)CSc2nnc(-c3ccc(NS(C)(=O)=O)cc3)n2C)cc1OC,3
O=C(CCl)N=c1sccn1Cc1ccc(Cl)cc1Cl,2
COc1ccc2[nH]cc(S(=O)(=O)c3ccc(C(C)C)cc3)c(=O)c2c1,11
CS(=O)(=O)Nc1ccc(C(=O)NCCSCc2c(F)cccc2Cl)cc1,8
COc1ccc(/C=C2\C(=O)NC(=S)N2C(=O)c2ccc(C)cc2)cc1,10
Nc1ccc(NC(=O)Nc2ccc(N)cc2)cc1,5
Fc1ccccc1NC(=S)N1CCN(c2ccccn2)CC1,23
Cc1ccc(C)c(S(=O)(=O)N2CCN(CC(=O)Nc3ccc4c(c3)CCC4)CC2)c1,23
CCO[C@@H]1OC(C(=O)N2CCOCC2)=C[C@H](C2CCCCC2)[C@H]1CCCO,17
CCn1c(C)c(C2=CCN(S(=O)(=O)c3ccc(C)cc3)CC2)c2ccccc21,8
O=C(CNc1ccc(Br)cc1)NNC1=NCCC1,9
Cc1nc(C(F)(F)F)ccc1C(=O)Nc1ccc(C(F)(F)F)cn1,19
COc1cccc(C(=O)C2CCCN(Cc3cccn3-c3cccnc3)C2)c1 (stereo not given),12
Cc1cccc(C)c1N1C(=O)[C@@H]2C(c3ccccc3Cl)=NO[C@@H]2C1=O,18
